Bioassay records: PubChem BioAssay, several laboratories
FGF22 binding = binders of human FGF22 protein, primary screen, FGF22 synaptogenesis inhibitor project, biophysical, thermal shift, single point. hit rate 1.5% among 340,000. calls only at 9.99 µM. recombinant FGF22 thermal shift, SYPRO orange fluorescence; percent of sucrose octasulfate shift, DMSO zero;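 active = melting point raised past a set limit in the mean and every replicate; inconclusive = no clear call; three in four hits are not shown here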
RanGTP-Impb inh = inhibitors of RanGTP-importin-beta interaction, primary screen, biochemical, FRET, CFP-Ran, YFP-importin-beta, homogeneous; cell-free CFP-Ran/YFP-importin-beta FRET ratio; inhibition, % (test concentration not listed); hit rate 1.1% among 300,000;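 active = most replicates above 15%; inconclusive = exactly half above 15%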;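 also: 0% = DMSO wells and 100% = Ran loaded with GDP instead of GTP; wells of about 40 µL received 100 nL stock; the first replicate is given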
MLL AF4-AF9 inh = inhibitors of AF4 peptide binding to AF9, primary screen, biochemical, AlphaScreen, biotin-AF4 peptide, FLAG-AF9, single point. inhibition, % at 10 µM. AID 651704, 2012. hit rate 0.47% among 350,000. Protein AF-9 (Homo sapiens), P42568;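 active = every replicate reaching a set inhibition limit, whatever the replicate mean, cut at about 25% in these data; inconclusive = mean inhibition reaches that limit but some replicates miss it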;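 also: 0% = plate neutral control median and 100% = total signal loss; the record names both 10 and 1 µM as test concentration; the first replicate is given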
Target sequence (P42568 whole entry, looked up): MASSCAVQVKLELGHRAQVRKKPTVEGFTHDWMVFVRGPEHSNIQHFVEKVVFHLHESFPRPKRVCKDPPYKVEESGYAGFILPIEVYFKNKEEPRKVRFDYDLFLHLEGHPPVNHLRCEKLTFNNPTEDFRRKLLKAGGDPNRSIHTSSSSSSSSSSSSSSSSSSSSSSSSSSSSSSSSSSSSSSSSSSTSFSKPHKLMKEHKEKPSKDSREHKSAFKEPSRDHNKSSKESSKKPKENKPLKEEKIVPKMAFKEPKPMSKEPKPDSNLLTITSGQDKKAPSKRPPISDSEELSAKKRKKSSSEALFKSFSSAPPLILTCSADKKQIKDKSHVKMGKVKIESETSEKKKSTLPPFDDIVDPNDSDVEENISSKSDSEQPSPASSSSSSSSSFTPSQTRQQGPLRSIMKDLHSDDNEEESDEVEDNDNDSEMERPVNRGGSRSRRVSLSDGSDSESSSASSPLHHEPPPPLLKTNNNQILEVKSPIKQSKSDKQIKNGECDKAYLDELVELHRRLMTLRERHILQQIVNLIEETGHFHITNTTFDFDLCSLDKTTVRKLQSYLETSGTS
HNF4A DNA FP = change in binding of human HNF4A to DNA, primary screen, biochemical, fluorescence polarization, FITC-DNA | Hepatocyte nuclear factor 4-alpha (Homo sapiens), P41235 | 1 h | activity change, % at 10 µM | hit rate 0.3% among 360,000 | AID 1224865, 2016; in the data active = activity change above about 30%, passing the limit was not always enough;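 also: controls were the assay level and a saturating level of protein; the project sought stronger binding though the title names inhibitors; some compounds called inactive have numbers as strong as hits; positive values seem to mean higher polarization but the record does not say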
Target sequence (P41235 whole entry, looked up): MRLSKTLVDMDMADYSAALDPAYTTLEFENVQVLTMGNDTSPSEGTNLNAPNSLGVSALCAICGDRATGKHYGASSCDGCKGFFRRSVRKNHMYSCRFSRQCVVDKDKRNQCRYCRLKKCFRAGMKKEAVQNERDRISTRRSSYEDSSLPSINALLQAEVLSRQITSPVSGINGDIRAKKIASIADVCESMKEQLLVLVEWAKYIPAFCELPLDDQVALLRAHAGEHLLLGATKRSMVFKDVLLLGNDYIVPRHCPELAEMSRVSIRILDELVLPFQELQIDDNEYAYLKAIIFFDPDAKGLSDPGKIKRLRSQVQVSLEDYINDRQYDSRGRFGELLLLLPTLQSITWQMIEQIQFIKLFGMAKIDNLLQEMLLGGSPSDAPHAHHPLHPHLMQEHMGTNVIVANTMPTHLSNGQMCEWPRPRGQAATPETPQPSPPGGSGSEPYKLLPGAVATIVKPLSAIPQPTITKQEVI
Vif TR-FRET = inhibitors of Vif binding to APOBEC3G peptide, primary screen, biochemical, TR-FRET, GST-Vif 1-94, biotin-A3G peptide, dose response retest (AID 1117319). Virion infectivity factor (Human immunodeficiency virus type 1 group M subtype B (isolate …. TR-FRET GST-Vif / biotin-A3G peptide binding; higher % means a stronger effect; test concentration not given here; strong numbers were not always called active. inhibition, %; hits with a dose series show IC50 in µM. hit rate 0.57% among 260,000;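 active = above the screen mean plus three standard deviations and confirmed in dose response; inconclusive = results disagree or hit not tested in dose response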;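 also: Vif residues 1-94 fused to GST binding biotinylated APOBEC3G peptide 110-148; 0% = full assay without inhibitor and 100% = GST in place of GST-Vif; retest series ran down from 100 µM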
E coli growth = E. coli growth inhibition, primary screen, OD600; OD600 absorbance (concentration not given with the values); AID 1053175, 2014; hit rate 0.21% among 330,000; Escherichia coli growth, 23 h; hits give low values;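 active = OD600 absorbance below the run mean of sample wells minus 3.6 SD, in any replicate, cut at about 0.56 in these data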;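 also: stock transfer was 300 nL into about 60 µL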
UCH37 DUB inh = inhibitors of human UCH37 deubiquitinase, primary screen, biochemical, Ub-AMC cleavage, fluorescence | Ubiquitin carboxyl-terminal hydrolase isozyme L5 (Homo sapiens), Q9Y5K5 | purified proteasome/UCH37 | inhibition, % (concentration not given with the values) | hit rate 0.33% among 330,000 | AID 588478, 2011;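 active = mean of two replicates above 20%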;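 also: 0% = compound-free wells with enzyme and 100% = wells lacking proteasome; stock transfer was 100 nL into about 20 µL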
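assay system = human UCH37 enzyme supplied as purified proteasome complex | amount = proteasome at 0.15 nM in the dispensed enzyme solution | schedule = 30 min compound-proteasome preincubation then 25 min substrate reaction, room temperature | measured by = fluorescence, ex 355 nm, em 460 nm | benchmarks = no-proteasome wells (full inhibition) and compound-free wells (no inhibition)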
An asterisk follows results filed as active; i = inactive; ? = inconclusive; · = no result given; + = active, no number; & = joins results of further samples. Some of the compounds tested (hit frequency here may not be typical).

| Structure | FGF22 binding | RanGTP-Impb inh | MLL AF4-AF9 inh | HNF4A DNA FP | Vif TR-FRET | E coli growth | UCH37 DUB inh |
| --- | --- | --- | --- | --- | --- | --- | --- |
| Cc1cccc(NC(=O)CCNS(=O)(=O)c2cc(Br)cnc2N)c1C | i | 8.7 | -0.6 | 1.5 | · | 0.62 | -1.9 |
| CS(=O)(=O)c1ccc2nc(NC(=O)c3ccccc3Cl)sc2c1 | i | 7.3 | -4.0 | -2.2 | · | 0.68 | 4.7 |
| CC(C)c1ccccc1NC(=O)CNC(C)c1ccc(F)cc1 (stereo not given) | i | -0.7 | 0.1 | 0.1 | -7% | 0.61 | 4.5 |
| CN(C)S(=O)(=O)n1cc(/C=C(\NC(=O)c2ccccc2Cl)C(=O)N2CCOCC2)c2ccccc21 | i | -2.5 | -5.1 | -4.7 | · | · | · |
| Nc1nc(SCc2ccc([N+](=O)[O-])cc2)nc2nc3c(cc12)CCCC3 | · | -2.4 | · | 8.9 | 23% | · | · |
| COCCOC(=O)C1=C(N)OC2=C(C(=O)CC(C)(C)C2)C1c1cccnc1 (stereo not given) | · | 0.5 | · | -5.1 | 3% | 0.7 | 4.3 |
| COC(=O)[C@]1(Cc2ccccc2)N[C@H](c2ccc(SC3CCCCC3)c(OC)c2)[C@@H]2C(=O)N(C)C(=O)[C@@H]21 | i | · | 3.5 | -4.3 | · | 0.82 | -0.9 |
| Cc1ccc(CC(=O)NCCc2ccc(S(N)(=O)=O)cc2)cc1 | · | -5.5 | -16 | -0.1 | · | 0.68 | 3.0 |
| Cc1ccc(NC(=O)CSC2=C(C#N)C(c3ccco3)CC(=O)N2)cc1 (stereo not given) | · | -1.1 | · | 3.1 | 9% | 0.7 | 1.1 |
| Cn1c(SCC(=O)Nc2ccc(F)cc2)nc2c(c1=O)SCC2 | i | -2.3 | 0.8 | -1.0 | · | 0.66 | 8.2 |
| CCCNS(=O)(=O)c1ccc(CCC(=O)N2CCN(c3ccc(OC)cc3)CC2)cc1 | i | ? | -41 | -1.9 | 9% | 0.72 | 1.7 |
| Cc1ccc(C)c(NC(=O)CSc2nnc(-c3ccncc3)n2N)c1 | · | -1.4 | · | -3.3 | 11% | 0.65 | 4.2 |
| S=C(Nc1cccnc1)N1CCN(c2ccccc2Cl)CC1 | i | -2.7 | 1.1 | -0.2 | · | 0.63 | -0.9 |
| O=C(NNc1c(Cl)cncc1Cl)c1cccs1 | i | 4.1 | -4.5 | -2.3 | -2% | 0.63 | 2.0 |
| Cc1cc(C)cc(N(CC(=O)N2CCn3c2nc2ccccc23)S(=O)(=O)c2c(C)noc2C)c1 | i | 0.8 | 2.4 | 3.9 | 27% | 0.76 | 1.7 |
| CC(=O)C1=CCC(c2ccc(F)cc2)N(S(=O)(=O)c2ccc(C)cc2)C1 (stereo not given) | i | · | 0.5&-1.9 | -2.0&-2.8 | · | · | · |
| O=C(NCCCN1CCOCC1)c1onc(CSc2ccc(F)c(F)c2)c1C(=O)NCCCN1CCOCC1 | · | 2.2 | · | 1.7 | · | 0.7 | 1.0 |
| CNC(=S)N1CCN(c2ccccn2)CC1 | i | -2.9 | 4.9 | 6.7 | · | 0.66 | -2.1 |
| CC(C)(C)NC(=O)c1cc(C(C)(C)C)c(O)c(C(C)(C)C)c1 | · | -2.0 | · | 0.8 | · | 0.71 | 2.8 |
| O=C(O)C1CSC(CCc2ccccc2)N1 (stereo not given) | · | 0.5 | · | 0.6 | -1% | 0.77 | -6.8 |
| CCCCNc1c(C(=O)OCC)c(C)nc2c1cnn2CC | i | 3.5 | -19 | 2.4 | · | 0.68 | 3.8 |
| O=C(Nc1nc2ccc(Oc3ccccc3)cc2s1)c1cc([N+](=O)[O-])ccc1N1CCOCC1 | · | 1.3 | · | -3.2 | · | 0.72 | 9.5 |
| C=CCN(Cc1cccs1)C(=O)CN1CCN(S(=O)(=O)c2ccc3c(c2)OCCCO3)CC1 | i | · | 0.1 | 0.4 | -15% | 0.68 | 3.7 |
| COc1ccc(-c2noc(CCC(=O)NCCCN3CCN(c4ccccc4F)CC3)n2)cc1 | i | 1.6 | 2.4 | -2.2 | -5% | 0.72 | 2.7 |
| O=C(NC(=S)Nc1ccc(N2CCOCC2)cc1)c1ccc(Cl)cc1 | · | 8.6 | · | -0.7 | 13% | 0.71 | 1.5 |
| CC(C)CCNc1c(-c2cccs2)nc2ccccn12 | i | 1.6 | 8.5 | 6.8 | -11% | 0.7 | -311 |
| COc1cccc(Cn2c(Oc3cccc(C)c3)nc3c2c(=O)n(C)c(=O)n3C)c1 | · | 1.3 | · | -2.3 | -5% | 0.77 | 5.5 |
| CC(NC(=O)c1cccs1)c1ccc(Br)cc1 (stereo not given) | i | 2.8 | -1.0 | -0.9 | · | 0.65 | 3.2 |
| CCN(C(=O)COC(=O)c1cnccn1)c1cccc2ccccc12 | · | · | 0.7 | -0.4 | -3% | 0.73 | -2.4 |
| O=C(NCc1ccc(Cl)cc1)N1CCN(C(=O)c2ccccc2)CC1 | i | · | -2.8 | 4.6 | 1% | · | · |
| O=C(Nc1ccc(CN2CCCCC2)cc1)c1cccc(Br)c1 | i | -2.1 | 1.5 | 1.8 | 2% | 0.7 | 6.0 |
| Cc1ccc(CS(=O)(=O)Cc2ccc(C(=O)NC3CC3)o2)cc1 | i | 11 | -1.2 | -1.1 | · | 0.71 | -2.9 |
| CCOC(=O)CNC(=O)Nc1ccccc1C(=O)OC | · | 1.3 | · | 2.1 | -3% | 0.71 | 3.4 |
| CC(C)(C)c1ccc(CC(=O)N2CCC2(C)C(=O)NS(=O)(=O)c2ccc(Cl)s2)cc1 (stereo not given) | i | · | -5.4 | 1.6 | · | · | · |
| CCOC(=O)COc1cccc2c(=O)n(CC(=O)N3CCCc4ccccc43)ccc12 | i | 3.7 | -6.9 | 1.3 | 5% | 0.75 | 1.4 |
| Cc1nc2cc3c(cc2c(C)c1C(=O)OC(C)C)OCO3 | · | -1.5 | · | -0.6 | -4% | 0.69 | -20 |
| COC(=O)Nc1sc2c(c1C(=O)NCc1ccco1)CCC2 | i | 11 | 7.5 | 4.2 | 19% | 0.65 | 0.9 |
| O=C(CN(C(=O)CCC(=O)Nc1ccccn1)c1ccc(F)cc1)NCc1ccco1 | i | 2.0 | -3.5 | 0.9 | -1% | 0.7 | -0.4 |
| CCCSc1ccc(C(=O)Nc2ccc(Cl)cc2)cn1 | i | -5.5 | 0.5 | -0.1 | -2% | 0.67 | -0.3 |
| CN(CC(=O)Nc1ccc(S(=O)(=O)N2CCCC2)cc1)Cc1cccc(Cl)c1Cl | i | -1.9 | -12 | 1.0 | · | 0.75 | -1.2 |
| OCC(O)C1OCOC(C(O)CO)C1O (stereo not given) | i | · | 2.4 | 4.3 | 8% | 0.69 | 3.4 |
| Cc1c(OCC(=O)N2CCC[C@@H]2C(=O)O)ccc2c3c(c(=O)oc12)CCC3 | i | -3.7 | -1.5 | -4.0 | · | 0.7 | -54 |
| O=C(Cn1cncc1-c1ccc([N+](=O)[O-])cc1)Nc1ccccc1F | i | 0.6 | 2.4 | 5.2 | · | 0.68 | 7.8 |
| COCCCNc1nc2nonc2nc1N1CCN2CCCC2C1 (stereo not given) | i | 5.1 | -17 | -0.8 | 3% | 0.64 | 8.1 |
| Cc1ccc(CN2C(=O)CCC2C(=O)NC(C)C)cc1 (stereo not given) | · | 0.8 | · | -2.2 | 0% | 0.69 | -0.5 |
| N#Cc1cc(-c2ccc(Cl)cc2)cnc1Sc1ccc(F)cc1 | · | -1.4 | · | -2.8 | -5% | 0.7 | 0.0 |
| CCCCOC(=O)Oc1ccc2c(=O)c(Oc3cc(C)cc(C)c3)coc2c1 | · | ? | · | 5.8 | 0% | 0.69 | 1.0 |
| CN1CCN(Cc2nc3ccccc3c(=O)n2CC#N)CC1 | i | 0.0 | 0.1 | -1.0 | 11% | 0.68 | -0.2 |
| CC(=O)Nc1ccc(S(=O)(=O)NCc2csc(-c3cccnc3)n2)cc1 | · | -1.6 | · | 0.7 | 0% | 0.7 | 5.0 |
| CCC(c1nnnn1C(C)(C)C)N(Cc1ccco1)Cc1cc2cccc(C)c2[nH]c1=O (stereo not given) | · | -1.3 | · | 4.7 | 2% | 0.74 | 2.4 |
| O=C(Nc1ccc(F)cc1)N(Cc1ccco1)Cc1cc2cc3c(cc2[nH]c1=O)OCO3 | · | 1.7 | · | 42* | ? | 0.77 | -6.7 |
| Cc1cc(C)n(-c2ccc(OCC(=O)O)nn2)n1 | · | 2.1 | · | 2.4 | -1% | 0.66 | 4.4 |
| COP(=O)(c1ccc(N(C)C)cc1)C(O)c1ccccc1 (stereo not given) | i | -3.2 | 0.1 | -1.3 | -2% | 0.69 | 0.6 |
| O=C(NCCc1c[nH]c2ccccc12)c1ccc(Br)o1 | + | · | 2.3 | -0.2 | · | 0.7 | 4.7 |
| O=C(NNC(=O)c1cc(-c2ccccc2)nn1-c1ccccc1)c1ccccc1 | · | -2.9 | · | 0.4 | 21% | 0.72 | -0.3 |
| COc1ccc(-c2ccc(CCC(=O)O)n2NC(=O)c2ccc(C(C)(C)C)cc2)cc1 | i | -3.8 | 3.7 | 0.3 | -14% | 0.69 | 4.4 |
| Nn1c(-c2cccc(O)c2)nnc1-c1cccc(O)c1 | i | · | -2.6 | -0.3 | -3% | · | · |
| N#Cc1c(-c2ccccc2)c(-c2ccccc2)n(Cc2ccco2)c1NC(=O)c1cccs1 | · | 0.4 | · | 2.7 | 12% | 0.71 | 1.2 |
| [S-]C(=Nc1ccc(Cl)cc1)N[n+]1ccccc1 | · | 3.2 | · | 2.6 | -2% | 0.69 | 1.3 |
| O=C(CN1C(=O)CCOc2ccccc21)Nc1cccc(S(=O)(=O)N2CCOCC2)c1 | i | · | -5.5 | -3.9 | 17% | 0.68 | -3.3 |

Additional entries follow:
| Structure | FGF22 binding | RanGTP-Impb inh | MLL AF4-AF9 inh | HNF4A DNA FP | Vif TR-FRET | E coli growth | UCH37 DUB inh |
| --- | --- | --- | --- | --- | --- | --- | --- |
| COC(=O)c1ccc2c(=O)n(Cc3ccc(C(=O)NC(C)C)cc3)c(=S)[nH]c2c1 | i | -0.8 | -2.1 | 7.8 | -2% | 0.72 | -0.1 |
| COc1cc([N+](=O)[O-])cc2sc(NC(=O)C3CC3)nc12 | i | -6.0 | -0.8 | 3.3 | 0% | 0.64 | 2.7 |
| COc1ccccc1N1CCN(c2ncnc3nc[nH]c23)CC1 | i | -1.0 | -3.3 | -2.5 | 2% | 0.73 | 2.8 |
| COc1ccc(NC(=O)CN2CC(c3ccccc3)CC2=O)cc1OC (stereo not given) | i | 2.3 | 3.0 | -1.6 | 20% | 0.73 | 1.3 |
| O=C(NCc1ccccc1)C(C1CC1)n1c(=O)c(-c2cc3ccccc3[nH]2)nc2ccccc21 (stereo not given) | i | · | -15 | -1.7 | · | · | · |
| COc1cc(/C=C/c2cccc[n+]2C)ccc1OCC(=O)Nc1ccccc1C | i | 0.5 | 0.4 | 0.7 | · | 0.71 | -1.8 |
| O=C(Cc1cccs1)Nc1nnc(SCc2cccc3ccccc23)s1 | · | -0.8 | · | -7.3 | · | 0.68 | 1.2 |
| Cc1ccc(NC(=O)C2CCN(C(=O)c3cccs3)CC2)c(C)c1 | i | 4.7 | -2.4 | 2.6 | · | 0.7 | 1.5 |
